nsP2pro primary: Primary qHTS for inhibitors of NSP2Pro chikungunya virus (CHIKV); Polyprotein P1234 (Chikungunya virus (strain S27-African prototype)), Q8JUX6; AID 1964107, 2024; Potency, µM (doses to about 24.9 µM), without a hit: at the top dose activity change, negative = inhibition, hits mostly inhibitors; FRET peptide cleavage, nsP2pro, fluorescence 1 h; 1.1% of 31,000 active; active means well fitted inhibition curve with a large enough effect; inconclusive means small, poorly fitted or top-dose-only effect; inactive means no such curve, though single readings can be large or run the other way; note: nearly all actives have a fitted effect of over 60% in size; a reference inhibitor and vehicle were the controls
Target sequence (Q8JUX6 whole entry, looked up): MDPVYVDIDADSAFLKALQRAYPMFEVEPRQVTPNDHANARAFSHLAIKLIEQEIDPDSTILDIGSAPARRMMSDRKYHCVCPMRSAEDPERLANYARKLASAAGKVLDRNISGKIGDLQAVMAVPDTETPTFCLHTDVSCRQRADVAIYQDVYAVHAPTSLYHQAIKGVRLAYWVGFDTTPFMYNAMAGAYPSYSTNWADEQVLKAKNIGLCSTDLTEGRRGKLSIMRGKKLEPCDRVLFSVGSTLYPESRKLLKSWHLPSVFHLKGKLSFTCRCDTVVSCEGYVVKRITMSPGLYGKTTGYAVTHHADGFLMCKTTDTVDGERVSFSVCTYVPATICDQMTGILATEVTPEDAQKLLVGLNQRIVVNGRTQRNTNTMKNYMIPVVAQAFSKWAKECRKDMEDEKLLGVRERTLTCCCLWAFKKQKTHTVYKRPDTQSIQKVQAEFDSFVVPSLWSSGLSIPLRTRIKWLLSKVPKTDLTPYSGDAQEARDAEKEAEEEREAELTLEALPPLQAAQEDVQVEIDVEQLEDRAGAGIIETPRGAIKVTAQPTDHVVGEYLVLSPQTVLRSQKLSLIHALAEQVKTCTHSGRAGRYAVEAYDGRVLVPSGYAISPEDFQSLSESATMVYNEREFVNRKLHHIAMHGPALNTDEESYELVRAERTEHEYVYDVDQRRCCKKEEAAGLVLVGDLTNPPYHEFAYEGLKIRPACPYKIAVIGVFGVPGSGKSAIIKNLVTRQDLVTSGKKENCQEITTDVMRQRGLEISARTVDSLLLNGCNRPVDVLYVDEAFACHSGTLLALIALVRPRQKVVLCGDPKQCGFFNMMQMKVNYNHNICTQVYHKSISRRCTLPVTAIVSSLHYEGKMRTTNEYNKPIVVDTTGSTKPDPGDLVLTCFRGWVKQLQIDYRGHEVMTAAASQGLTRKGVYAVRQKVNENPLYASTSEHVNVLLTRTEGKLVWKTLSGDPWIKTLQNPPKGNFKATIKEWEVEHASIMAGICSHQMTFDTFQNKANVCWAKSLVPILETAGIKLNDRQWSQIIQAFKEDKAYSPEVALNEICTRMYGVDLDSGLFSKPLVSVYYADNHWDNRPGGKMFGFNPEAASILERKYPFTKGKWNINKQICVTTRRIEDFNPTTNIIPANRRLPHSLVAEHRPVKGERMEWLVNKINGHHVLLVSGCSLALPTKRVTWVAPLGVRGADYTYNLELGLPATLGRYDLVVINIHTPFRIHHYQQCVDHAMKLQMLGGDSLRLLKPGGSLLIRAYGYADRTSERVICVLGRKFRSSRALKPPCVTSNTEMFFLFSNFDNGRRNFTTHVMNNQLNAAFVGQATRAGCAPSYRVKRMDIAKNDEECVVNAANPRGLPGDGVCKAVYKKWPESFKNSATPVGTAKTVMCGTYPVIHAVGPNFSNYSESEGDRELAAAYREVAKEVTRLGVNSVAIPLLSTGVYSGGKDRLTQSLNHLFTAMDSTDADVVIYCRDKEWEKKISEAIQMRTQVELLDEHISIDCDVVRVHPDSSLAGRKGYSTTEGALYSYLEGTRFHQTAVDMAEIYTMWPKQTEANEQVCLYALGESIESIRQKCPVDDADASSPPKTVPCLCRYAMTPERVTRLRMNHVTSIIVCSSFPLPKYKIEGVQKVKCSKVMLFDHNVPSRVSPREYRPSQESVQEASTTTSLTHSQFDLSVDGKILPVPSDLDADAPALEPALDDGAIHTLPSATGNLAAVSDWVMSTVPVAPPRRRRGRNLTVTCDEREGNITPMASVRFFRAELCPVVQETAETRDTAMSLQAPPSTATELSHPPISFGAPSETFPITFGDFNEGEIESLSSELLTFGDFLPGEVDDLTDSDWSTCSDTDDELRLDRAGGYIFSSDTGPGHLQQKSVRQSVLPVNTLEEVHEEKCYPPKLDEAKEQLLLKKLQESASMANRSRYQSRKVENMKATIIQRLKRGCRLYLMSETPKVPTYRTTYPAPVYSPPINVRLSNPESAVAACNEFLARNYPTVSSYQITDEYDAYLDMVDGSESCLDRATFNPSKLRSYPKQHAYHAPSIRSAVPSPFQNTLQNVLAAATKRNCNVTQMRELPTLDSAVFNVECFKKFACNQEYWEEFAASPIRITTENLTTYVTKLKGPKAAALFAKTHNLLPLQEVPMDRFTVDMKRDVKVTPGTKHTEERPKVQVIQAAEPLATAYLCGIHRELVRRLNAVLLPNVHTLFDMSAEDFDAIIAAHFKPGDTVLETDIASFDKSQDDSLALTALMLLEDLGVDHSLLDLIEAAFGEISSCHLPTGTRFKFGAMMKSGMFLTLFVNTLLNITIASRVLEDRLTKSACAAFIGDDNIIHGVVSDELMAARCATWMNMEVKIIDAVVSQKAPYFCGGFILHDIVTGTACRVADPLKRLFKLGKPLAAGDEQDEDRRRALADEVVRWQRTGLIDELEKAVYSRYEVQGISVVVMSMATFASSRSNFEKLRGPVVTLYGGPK
The depositor's hits bear a star; i = inactive; u = inconclusive; & = joins results of further samples; [ ] = remark or other dose. % is set by controls: 0 for no effect and ±100 for the full control effect; potency is the fitted concentration of half-maximal effect.

SMILES	nsP2pro primary
COc1ccccc1S(=O)(=O)Nc1ccc2c(c1)CN(C)C(=O)N2	13%&1%
COc1ccc(CN2CCNC(=O)C2CC(=O)NCc2ccncc2)cc1OC (stereo not drawn)	-5%
C[C@H]1O[C@]2(CS1)CN1CCC2CC1	7%
COc1ccc(N2CCN(C(=O)c3cccn3-c3nnc(N4CCCC4)s3)CC2)cc1	-27%
NC[C@H]1O[C@H](O[C@H]2[C@@H](O)[C@@H](O[C@H]3O[C@H](CO)[C@@H](O)[C@H](N)[C@@H]3O)[C@H](N)C[C@@H]2N)[C@H](N)C[C@H]1O	-3%[5.1 µM]
CN(Cc1ccc(-c2ccccc2)cc1)CC1CCCCC1	-7%[39.2 µM]
CCc1nc2c(c(-c3ccc(Cl)cc3)n1)CN(Cc1ccccn1)CC2	i
O=c1oc2c3c(ccc2c2ccccc12)OCN(Cc1ccccc1Cl)C3	1.1µM*
Cc1c[nH]c(/C=C2\C(=O)Nc3ccccc32)c1CCC(=O)O	12%
O=S(=O)(NCCc1csc2nc(-c3ccccc3)nn12)c1ccc(Cl)s1	-6%
CC(=O)N(CC(O)CN(C(C)=O)c1c(I)c(C(=O)NCC(O)CO)c(I)c(C(=O)NCC(O)CO)c1I)c1c(I)c(C(=O)NCC(O)CO)c(I)c(C(=O)NCC(O)CO)c1I (stereo not drawn)	9%
CN(C(=O)c1ccc2c(c1)N(Cc1ccccc1F)C(=O)c1ccccc1S2)C1CCCCC1	-15%
CCOc1ccc(CC(=O)Nc2c(C(=O)Nc3ccc(OC)cc3OC)oc3ccccc23)cc1	-20%
N#Cc1c(-n2ncnc2-c2cccc(Br)c2)sc2c1CCCCC2	u
O=C(/C=C/c1cccnc1)NCCCCC1CCN(C(=O)c2ccccc2)CC1	u
COc1ccc(NC(=O)CCNS(=O)(=O)c2ccc3c(c2)CCN3C(=O)C2CC2)cc1Cl	-11%
CCN(CC)C(=O)[C@@H]1CCC[C@@H](NC(=O)c2ccc(Cl)cc2)CN(C)C(=O)C1	-7%[39.2 µM]
CCCS(=O)(=O)N1CCC2(CC1)c1[nH]c3ccccc3c1CCN2C	u
Cc1ccccc1-c1cc(O)c2c(c1)CN(C(=O)C1CCNCC1)CCO2	i
CCc1ccc2oc(C(=O)Nc3nonc3CC)c(C)c2c1	-14%
O=C(CCc1nc2ccccc2[nH]1)N1CCC(c2nc(CCOCC3CC3)no2)C1 (stereo not drawn)	i
O=C1CCC2(CCCN(C(=O)c3ccc(=O)[nH]c3)C2)CN1CCc1cnc[nH]1 (stereo not drawn)	-4%
COc1ccc(S(=O)(=O)Nc2cc(Cl)cc(Cl)c2OC)cc1N1CCNCC1	34%
CCOc1ccccc1NC(=O)CCCc1nc(-c2ccccc2Cl)no1	-13%
Oc1ccc(OC2CCCCO2)cc1 (stereo not drawn)	u
The results go on.
SMILES	nsP2pro primary
Cn1cccc1CN1CCC2(C1)C(=NC1CCCC1)NC(=O)N2c1cccnc1 (stereo not drawn)	u
CCc1nn2c(=O)c(C)c(N3CCNCC3)nc2s1	-6%
N[C@H]1CONC1=O	-8%[39.2 µM]
CCOc1ccc(Cl)cc1CNCCCSc1nnnn1C	-3%
Cc1ccc(-c2ccc(=O)n(CC(=O)NCCc3ccccc3)n2)cc1	-4%
O=C(NC1CCC1)c1ccc2nccn2c1	u
CCCn1c(-c2ccc(F)cc2)nc2c(NCCN3CCSCC3)nc(C)nc21	0%
CC1(C)C(C=C(Cl)Cl)C1C(=O)OCc1cccc(Oc2ccccc2)c1 (stereo not drawn)	-3%
Cc1ccc2c(=O)cc(C(=O)Nc3sc4c(c3C(=O)NCc3ccco3)CCCC4)oc2c1C	-12%
CCOC(=O)c1c(NC(=O)c2cc(=O)c3cc(Cl)ccc3o2)sc(C)c1C	u
Cc1ccc(C)c(N2CCN(C(=O)c3cc4cc5ccc(C)cc5nc4o3)CC2)c1	-19%
O=C(Nc1ccc(Cl)cc1)c1ccccc1NCc1ccncc1	75%[activator]
Cc1nc2c(NS(=O)(=O)c3cccc(C#N)c3)cccn2n1	1%
CC1(C)CCC(C)(C)c2cc(NC(=O)c3ccc(C(=O)O)cc3)ccc21	-10%&7%
COc1ccc(NC(=O)c2ccc(CNS(=O)(=O)c3ccc4c(c3)C(C)(C)C(=O)N4C)cc2)cc1	-13%
CSCC[C@H](N)C(=O)O	2%[10 µM]
CC(C)CN(CCCNC(=O)c1cc(=O)[nH]c2ccc(S(=O)(=O)N3CCCCCC3)cc12)CC(C)C	-18%
Cc1oc(-c2ccc(Cl)cc2)nc1CN1CCCC(C(=O)NCCc2ccc(Cl)cc2)C1 (stereo not drawn)	1%
CCOCCn1nc(CC)c2nc(N3CCC(C(=O)O)CC3)nc(Nc3cc(C)ccn3)c21	-3%
Cc1nn(-c2ccccc2)c2c1N(CCCC(=O)NC(C)c1ccccc1)C(=O)CS2 (stereo not drawn)	-18%
O=C1CCCC2=C1C(c1[nH]ncc1Cl)N=C(Nc1cccnc1)N2 (stereo not drawn)	-3%
CCN1C[C@]2(OC(=O)c3ccccc3NC(C)=O)CC[C@H](OC)[C@@]34[C@@H]2C[C@@H]([C@@H]13)[C@@]1(O)C[C@H](OC)[C@H]2C[C@@H]4[C@]1(O)[C@H]2OC	-6%
O=C(NC1CC1)c1nc(-c2ccc(F)cc2)c2cnccn12	-17%
CC1CCCC(O)CCC/C=C/c2cc(O)cc(O)c2C(=O)O1 (stereo not drawn)	4%
Cc1ccc(CNc2ncnc3cc(-c4ccc5c(c4)OCO5)ccc23)o1	-15%
Additional entries:
SMILES	nsP2pro primary
CC(=O)NCC(=O)NC1CC(C)(C)Cc2nc(N(C)Cc3ccccc3)ncc21 (stereo not drawn)	i
CCC(=O)N(C1CCOCC1)C1CCN(S(=O)(=O)c2c(C)nn(C)c2C)CC1	4%
O=C(c1ccccc1Cl)N1CCc2c(nc3cc(-c4ccccc4)[nH]n3c2=O)C1	-11%
N#Cc1nc(-c2cccc3ccccc23)oc1NCC#CCOC(=O)c1cccs1	-6%
CCOC(=O)Cn1c(=O)n(C2CCCCC2)c2nc(-c3ccc(CC)cc3)nc(C(N)=O)c21	-19%
O[C@H]1CC[C@@H](Cc2cc(CN3CCN(c4ccccc4)CC3)on2)O[C@@H]1CNCc1ccccc1	i
COc1ccc(C(=O)Nc2cccc(C(=O)OCc3cc(=O)n4c5c(sc4n3)CCCC5)c2)cc1	-10%
Cc1noc(CN(C)c2ncnc3ccc(-c4ccc5c(c4)OCO5)cc23)n1	i
Cc1nc(C2CCCN2Cc2ccc(-c3ccn[nH]3)o2)cs1 (stereo not drawn)	8.9µM*
Cc1ccc(C)c(CN2C(=O)c3ccccc3S(=O)c3ccc(C(=O)NCCc4ccc(Cl)cc4)cc32)c1 (stereo not drawn)	-1%
C[C@@H](O)[C@H]1C(=O)N2C(C(=O)O)=C(S[C@@H]3CN[C@H](C(=O)N(C)C)C3)[C@H](C)[C@H]12	-29%&-22%&-8%
CCOC(=O)c1c(C)sc(-c2c(-c3ccc(OC)c(F)c3)[nH]c3c2c(=O)[nH]c(=O)n3C)c1O	-8%
Nc1ccc(S(=O)(=O)NC2(C(F)(F)F)NC(=O)N(c3cccc(Cl)c3)C2=O)cc1 (stereo not drawn)	-10%
OC[C@H]1O[C@H](O[C@H]2[C@H](O)[C@@H](O)[C@H](O)O[C@@H]2CO)[C@H](O)[C@@H](O)[C@@H]1O	-2%
Cc1ccc(Br)c(C(=O)NCc2ccnc3[nH]ccc23)c1	u
CN(CC1Cc2ccccc2O1)C(=O)c1coc(COc2ccc3c(c2)OCO3)n1 (stereo not drawn)	-2%
COc1ccccc1C(=O)NCC1(N2CCN(C)CC2)CCCCC1	-22%
Cc1ccc(N(C)C(=O)c2cc(S(=O)(=O)N3CCOCC3)cn2C)cc1	-10%
Cc1ccc2nc3sc(C(=O)Nc4ccncc4)cc3cc2c1	-1%
O=C(c1ccc(Cl)s1)N1CCC(n2cnnc2-c2ccccc2)C1 (stereo not drawn)	-1%
CC(C)C(=O)Nc1ccc([N+](=O)[O-])c(C(F)(F)F)c1	-4%
COC(=O)CNC(=O)C1CCc2nnc(CNC(=O)NC(C)C)n21 (stereo not drawn)	-14%
CCN(CC1CCN(CCc2ccccc2C)CC1)C(=O)c1csc(C)n1	-4%
COC(=O)c1sc(S(=O)(=O)N2CCN(c3ccc(OC)cc3)CC2)c(C(=O)OC)c1C	-21%
Cc1ccnc(NC(=S)NC2CCCN(c3cccc(C(F)(F)F)c3)C2)c1 (stereo not drawn)	4%
The listing continues:
SMILES	nsP2pro primary
CC(=O)N1CCCC2(CC(c3cccnc3)=NO2)C1 (stereo not drawn)	-5%[39.2 µM]
CCOC(=O)N1CCN(Cc2nccn2CCOC)CC1	-4%
Cc1ccc(C)c(Cn2c(=O)n(C(C)C)c(=O)c3oc4ccccc4c32)c1	-13%
CCOCCn1nc(C)cc1C(=O)N1CC(C)(C)[C@@](C)(O)C1	-2%
CCC(Sc1nnc2c(n1)[nH]c1ccccc12)C(=O)N1c2ccccc2Sc2ccccc21 (stereo not drawn)	u
COc1ccc(S(=O)(=O)c2c(O)c3ccc(C(=O)NCc4ccc(Cl)cc4)cc3[nH]c2=O)cc1	-13%
Cc1cccc(C)c1-n1c(SCC(=O)Nc2ccc(F)cc2)nnc1-c1cccc([S+](=O)([O-])N2CCCC2)c1	-3%
CC1=C2CC(C)(C)CC2C(O)C2=C(C1)C(=O)OC2O (stereo not drawn)	u
N#Cc1ccc(-c2nc3ccccc3s2)cc1	i
N#Cc1cccc(-c2csc(N3CCC(C(N)=O)CC3)n2)c1	1%
CCCCCCCCCCCCCC(=O)OC(C)C	-2%
N[C@@H]1CONC1=O	5%
Cc1nn(Cc2ccccc2)c(C)c1[C@@H]1C=C[C@@H](NC(=O)c2cccs2)C1	-4%[39.2 µM]
COc1ccc(OC)c(C(O)C(C)N)c1 (stereo not drawn)	0%
CCC(C)CNCC(=O)N1CCc2sccc2C1COc1cccc(C)c1 (stereo not drawn)	39%[activator]
COc1ccc2cc(CCC(C)=O)ccc2c1	-7%&-5%
CCn1cc(C(=O)NCc2ccccc2)c(=O)c2cc(S(=O)(=O)N3CCCCC3)ccc21	-10%
COC[C@H]1C[C@@H](c2ncc(-c3ccc4c(c3)COc3cc5c(ccc6[nH]c([C@@H]7CC[C@H](C)N7C(=O)[C@@H](NC(=O)OC)C(C)C)nc65)cc3-4)[nH]2)N(C(=O)[C@H](NC(=O)OC)c2ccccc2)C1	u
COC(=O)c1ccc(Nc2nc(-c3ccncc3)nc3ccccc23)cc1OC	i
COc1ccc(-c2c(NC(C)=O)sc3c2CCNC3)cc1	-18%
CCCN(CCC)C(=O)C1CCCN(S(=O)(=O)c2ccc3c(c2)oc(=O)n3C)C1 (stereo not drawn)	-5%
O=C(CC1CCCC1)N1CCC(c2noc(-c3cnccn3)n2)C1 (stereo not drawn)	-5%
CC(=O)OCC(=O)[C@@]1(O)CC[C@H]2[C@@H]3C[C@H](C)C4=CC(=O)C=C[C@]4(C)[C@H]3[C@@H](O)C[C@@]21C	1%
Fc1ccc(-c2cc(-c3ccc(F)cc3)c3c(n2)-c2cc(F)ccc2OC3)cc1	-21%
O=C(OCC#CCNc1nnc(-c2cccc3ccccc23)o1)c1cccs1	5%
Following part.
SMILES	nsP2pro primary
CCCS(=O)(=O)Nc1ccc2n(c1=O)C[C@H]1C[C@@H]2CN(Cc2cn(C)c3ccccc23)C1	-9%
Cc1ccc([S+](=O)([O-])n2cc(-c3ccc(-c4ccccc4)cc3)c3ccccc32)cc1	i
CC(=O)c1cc(-c2ccc(F)cc2)n(CCC(=O)Nc2nc3ccc(C)cc3s2)c1C	2%
O=C(c1ccccc1)N1CCC2(CC(Cc3ccccc3)=NO2)C1 (stereo not drawn)	-3%[39.2 µM]
COc1ccc2c(C)cc(SCC(=O)Nc3nsc(-c4ccccc4C)n3)nc2c1	-19%
CCCCc1nn(CC(=O)N2CCSCC2)c(=O)n1CCc1ccccc1	0%
Cc1cc(Nc2cccc(C)c2C)n2cnnc2n1	-11%
CCCCCC1Nc2cc(C(F)(F)F)c(S(N)(=O)=O)cc2S(=O)(=O)N1 (stereo not drawn)	u
Cc1cccc(NC(=O)c2ccc(C(F)(F)F)cc2C(=O)O)n1	1%
CC(=O)N1CCN(C(=O)c2ccc3oc(-c4ccccn4)nc3c2)CC1	-9%
Cc1oc(-c2cccc(Br)c2)nc1Cn1c(=O)cc(-c2ccccc2)c2c(C)nn(C)c21	-28%
CC#CC(=O)Nc1ccc2ncnc(Nc3cccc(Br)c3)c2c1	-11%
COc1ccc(OC)c(S(=O)(=O)NCC(c2ccco2)S(=O)(=O)c2ccccc2)c1 (stereo not drawn)	-21%
CN(C)[C@@H]1C(=O)C(C(N)=O)=C(O)[C@@]2(O)C(=O)C3=C(O)c4c(O)cccc4[C@@](C)(O)[C@H]3[C@H](O)[C@@H]12	34%

From PubChem BioAssay

The list is partial; count on the stated rates, not on these rows.
